Screening results deposited in PubChem by National Center for Advancing Translational Sciences (NCATS).
Vaccinia mCherry = vaccinia inhibition (mCherry reporter); Vaccinia virus mCherry reporter infection, fluorescence; about a quarter of the inactives have no number; AID 720579; Potency, µM (titrated, usually from 36.5 µM), for the others: at the highest dose activity change, negative = inhibition, usual class: inhibitors; actives 0.63% (n = 310,000); active = well fitted inhibition curve with a large enough effect; inconclusive = small, poorly fitted or top-dose-only effect; inactive = no such curve, though single readings can be large or run the other way; tested in A549 cells; note: nearly all actives have a fitted effect of over 35% in size; inactives centre near -10
VACV Venus inh = inhibitors of vaccinia virus (Venus reporter) | AID 720580 | Vaccinia virus Venus reporter expression, fluorescence | actives 0.46% (n = 330,000) | Potency, µM (titrated, usually from 36.5 µM), without a hit: at the top dose activity change, negative = inhibition, actives largely listed as inhibitors; active means well fitted inhibition curve with a large enough effect; inconclusive means small, poorly fitted or top-dose-only effect; inactive means no such curve, though single readings can be large or run the other way; tested in A549 cells; note: nearly all actives have a fitted effect of over 30% in size; inactives centre near -10
* marks the source's active call; other numbers are inactive results; i = inactive; u = inconclusive; x = no result given; & = joins results of further samples; [ ] = dose if it differs, or a comment. % is set by controls: 0 for no effect and ±100 for the full control effect; potency is the fitted concentration of half-maximal effect. Outcome played no part in choosing rows. Share with any hit: about 0.87%.

SMILES	Vaccinia mCherry	VACV Venus inh
O=C(Nc1ccccc1)Nc1nnc(-c2cccs2)s1	i	-6%
COC(=O)c1ccccc1NC(=O)c1cn(-c2ccc(C)c(C)c2)c(=O)c2ccccc12	i	-11%
COc1cc(NC(=O)c2cccs2)c(OC)cc1NC(=O)c1ccco1	-20%	-15%
O=C(COC(=O)c1ccc(CNS(=O)(=O)c2ccc(F)c(Cl)c2)cc1)NC1CCCCCCC1	-15%	0%
COc1ccc(C=O)cc1COc1ccc2c(c1)OCO2	-24%	-3%
Cc1cc(NC(=O)CSc2ccc3nnc(-c4cccnc4)n3n2)no1	-6%	-5%
CC(OC(=O)CCC(=O)c1ccccc1)C(=O)Nc1ccc(F)cc1 (centres undefined)	-12%	3%
Cc1cccc(C(C)C)c1NC(=O)CN(C)Cc1cccc(F)c1	-7%	-22%
CC(=O)Nc1ccccc1C(=O)C(=O)Nc1cccc(C(=O)NC2CC2)c1	-13%	-11%
CCOc1ccccc1N1CCN(C(=O)c2cccs2)CC1	-5%	-6%
O=C(CCn1c(=O)c2ccccc2n(Cc2cccc(F)c2)c1=O)NCc1ccc2c(c1)OCO2	-4%	-6%
CCOC(=O)c1[nH]c(C(=O)O)c(CCC(=O)OC)c1C	-3%	-13%
Cc1cc(C)c2c(n1)sc1c(=O)n(CC(=O)c3ccccc3)cnc12	-11%	-13%
O=S(=O)(c1ccc(F)cc1)c1nc(-c2ccccc2)oc1N1CCOCC1	0%	-9%
CC(=O)NC(C(=O)OCC(=O)N(c1ccccc1)c1ccccc1)C(C)C (centres undefined)	-13%	-5%
Nc1ccc(C(=O)O)cc1S(=O)(=O)O	i	-4%
Cc1cc(C(=O)Nc2cccc3c2O[C@@H](CN(C)S(C)(=O)=O)[C@H](C)CN([C@@H](C)CO)C3=O)n(C)n1	i	-6%
COc1ccccc1NC(=O)Nc1ccc(S(=O)(=O)Nc2onc(C)c2C)cc1	i	-9%
CCCc1nnc(NC(=O)c2cccs2)s1	-17%	-19%
N=c1sccn1CC(=O)Nc1ccc(SC(F)F)cc1	-8%	-8%
O=C(Nc1ccc(F)c(Cl)c1)c1csc([C@H]2C[C@H](O)[C@@H](CO)O2)n1	-13%	-14%
C=CCN(c1ccccc1C(=O)NCC(=O)O)S(=O)(=O)c1ccc(C)cc1	-11%	-5%
COc1ccc(/C=N/N2C(=O)C3C4C=CC(CC4)C3C2=O)c(OC)c1 (centres undefined)	i	-5%
COc1ccc(CN(C)C(=O)[C@H]2O[C@@H](n3ccc(N)nc3=O)[C@H](O)[C@@H]2O)cc1OC	5%	0%
Cc1cc(NC(=O)c2cnc3c(-c4ccccc4)c(C)nn3c2C)ccc1Br	-9%	-12%
Cc1ccc(S(=O)(=O)Nc2cc3c(cc2N2CCOCC2)n(C)c(=O)n3C)cc1	-3%	-1%
O=C(NCc1cc(C(F)(F)F)ccc1F)C1CCC(=O)N(C2CC2)C1 (centres undefined)	i	-14%
CCC1=NN2C(=N)/C(=C\c3ccc(OCCOc4ccccc4OC)cc3)C(=O)N=C2S1	-7%	-6%
CN(C)S(=O)(=O)n1cnc([C@H]2c3c(ncn3Cc3ccccc3)C[C@H]3COC(=O)[C@@H]32)c1	i	-1%
CCN(CC(=O)Nc1c(F)cccc1F)C(=O)CCc1c[nH]c2ccccc12	-1%	-15%
Cc1nn(-c2ccc(Cl)cc2)c(Cl)c1/C=C(\C#N)C(N)=O	-6%	-12%
O=C(O)/C=C/c1ccc(S(=O)(=O)Nc2ccc3[nH]c(=O)[nH]c3c2)cc1	-12%	-6%
CC(C)C[C@@H]1O[C@H](CCc2ccccc2)CC2=C1C(=O)OC(C)(C)O2	-1%&19%	0%&1%
O=C(Nc1nc2ccc(F)cc2s1)c1ccc([N+](=O)[O-])o1	u	10µM*
COC(=O)c1cc2sccc2n1Cc1nc(-c2ccc(Cl)cc2)oc1C	-17%	-15%
NC(=O)[C@@H]1CCCNc2c(I)cc([N+](=O)[O-])cc2C(=O)N[C@@H](CCC(=O)O)C(=O)N[C@@H](CO)C(=O)N1	-29%	-20%
CC(C)CC1CC(=O)OC1(C)C(=O)CSc1nc2ccccc2s1 (centres undefined)	-15%	-4%
CC1CC(C)CN(CCCNC(=O)C2CCC(=O)N2C2CCCC2)C1 (centres undefined)	-12%	-8%
O=C(c1c(F)cccc1F)N1CCN(CCOc2ccccc2)CC1	-2%	-16%
O=C(CC[C@H]1O[C@@H](n2cnc3c(NC(=O)c4ccccc4)ncnc32)[C@H](O)[C@@H]1O)NCc1ccc2c(c1)OCO2	13%	-13%
Cc1ccccc1NS(=O)(=O)c1ccc(C(=O)NCCCN2CCOCC2)cc1	i	-17%
COc1cccc(C2NC(=O)NC(C)=C2C(=O)OCCSC)c1OC (centres undefined)	-11%	-9%
CCn1cc(C(=O)N2CCc3ccccc32)c(=O)c2cc(S(=O)(=O)N(C)C3CCCCC3)ccc21	-12%	-5%
Cc1nc2c(sc(=S)n2Cc2ccco2)c(=O)n1CC(=O)Nc1ccccc1Cl	3%[7.34 µM]	6%[7.34 µM]
O=C(NCn1ccc(=O)[nH]c1=S)c1ccccc1	x	-19%
Cc1ccc(-c2ccc(/C=N\n3cnnc3)o2)c(Br)c1	i	-13%
O=C(c1cc([N+](=O)[O-])ccc1Cl)N1c2ccccc2Sc2ccccc21	u	u
Cc1cc(NC(=O)CCCN2C(=O)/C(=C/c3cccs3)SC2=S)no1	-8%	-6%
COc1ccc(CCNC(=O)c2ccc(-n3c(C)cc4c3CCCC4)cc2)cc1OC	-19%	-14%
O=C(COC(=O)Cn1nnc2ccccc21)Nc1ccccc1Br	-16%	-2%
Nc1ccn([C@H]2C[C@H](O)[C@@H](CO)O2)c(=O)n1	-17%	-12%&-10%
O=C1C(C=Nc2ccccc2O)=C(O)c2ccccc21	u	u
COc1ccc(C(CC(=O)N2CCCC2)c2c(OC)cc(OC)c3c(-c4ccccc4)cc(=O)oc23)cc1 (centres undefined)	-6%	u
Cc1cc(C)c(NC(=O)c2cccs2)c(C)c1NC(=O)c1cccs1	-9%	5%
Cc1ccc(SCC(=O)N2CCN(c3ccccn3)CC2)cc1	5%	12%
O=C(NC12CC3CC(CC(C3)C1)C2)c1ccc(N2CCNCC2)c([N+](=O)[O-])c1	-7%	-12%
CCN(CCO)C(=S)Nc1cc(S(=O)(=O)N(C)C)ccc1C	-8%	8%
O=C(COCCOCC(=O)N(c1ccccn1)C1CCCCC1)N(c1ccccn1)C1CCCCC1	x	-1%
O=C(Nc1nnc(CCS(=O)(=O)c2ccc(Br)cc2)s1)c1ccc([N+](=O)[O-])cc1	i	-20%
COc1cc(NC(=O)Cn2cnc3sc(C)c(S(=O)(=O)N4CCOCC4)c3c2=O)cc(OC)c1OC	-10%	12%

Entries of single compounds, quoted from the list:
`CCOC(=O)c1[nH]c(C(=O)O)c(CCC(=O)OC)c1C` across the screens: Vaccinia mCherry: -3%; VACV Venus inh: -13%
`Cc1ccccc1NS(=O)(=O)c1ccc(C(=O)NCCCN2CCOCC2)cc1` across the screens: Vaccinia mCherry: i; VACV Venus inh: -17%

Following part
SMILES	Vaccinia mCherry	VACV Venus inh
Cc1ccc(C(=O)C2CCOC(C)(C)C2)cc1 (centres undefined)	-14%	-2%
CCOc1ccccc1CN1CCN(Cc2ccon2)CC1CCO (centres undefined)	-9%	-13%
O=C(NS(=O)(=O)N1CCCC1)C1=C(N2CCCC2)COC1=O	-4%	-2%
CC1NC(=O)c2cc3ccccc3cc2-n2c1nc1ccccc1c2=O (centres undefined)	i	-5%
CN(C)S(=O)(=O)Nc1ccc(Cc2ccncc2)cc1	i	3%
COc1ccccc1CN1CCCC(CN(CCN(C)C)C(=O)C2CCCC2)C1 (centres undefined)	i	-11%
O=C(Nc1ccc2nc(SCCOc3ccccc3)sc2c1)c1ccco1	-23%	-16%
COc1ccc(OC)c(NC(=O)c2cccc(N3C(=O)C4C5CCC(C5)C4C3=O)c2)c1 (centres undefined)	-8%	-17%
Cc1coc2cc3oc(=O)c(CCC(=O)O)c(C)c3cc12	12%	6%
CCc1cccc(NC(=O)COC(=O)C2COc3ccccc3O2)c1 (centres undefined)	i	-3%
CSCCCNC(=S)N(C)CC(=O)Nc1ccc(C)cc1	i	-6%
CC1=CC(C)(C)N(C(=O)CSc2nnc(N)s2)c2ccccc21	u	-26%

Laid out differently: entries from further up
Molecule | Vaccinia mCherry | VACV Venus inh
O=C(NS(=O)(=O)N1CCCC1)C1=C(N2CCCC2)COC1=O | -4% | -2%
CC1NC(=O)c2cc3ccccc3cc2-n2c1nc1ccccc1c2=O (centres undefined) | i | -5%
CN(C)S(=O)(=O)Nc1ccc(Cc2ccncc2)cc1 | i | 3%
COc1ccccc1CN1CCCC(CN(CCN(C)C)C(=O)C2CCCC2)C1 (centres undefined) | i | -11%

(cont.)
SMILES	Vaccinia mCherry	VACV Venus inh
COc1ccc(S(=O)(=O)N2CCCC(C(=O)Nc3ccc4c(c3)OCCO4)C2)cc1 (centres undefined)	-7%	-14%
Cc1nn(CCOc2ccccc2)c(=O)n1-c1ccc(Cl)cc1	5%	6%
COc1ccc(N(CC(=O)NC2CCCC2)C(=O)CCC(=O)Nc2cc(C)on2)cc1	-22%	-6%
O=C(O)c1cccc(S(=O)(=O)N2CCCC(c3nc4c(nnn4Cc4ccc(F)cc4)c(=O)[nH]3)C2)c1 (centres undefined)	-12%	-3%
O=C(Oc1ccc(=O)n(-c2ccccc2)n1)c1ccccc1	x	u
Cc1ccc(Cl)cc1N1CCN(CCNC(=O)Nc2ccc(Cl)cc2)CC1	-17%	-19%
O=C(CCc1nc(-c2ccccc2Cl)no1)NCCc1ccccc1	-9%	-8%
CC(=O)N1CCSc2ccc(S(=O)(=O)Nc3ccc(C)cc3)cc21	-6%	-13%
Cc1ccc(NC(=O)C2C3/C=C\CCCCC32)cc1 (centres undefined)	-21%	-5%
Cc1sc2ncn(/N=C/c3ccco3)c(=O)c2c1C	i	24%
CCN(C(=O)C1CCN(S(=O)(=O)c2c(C)noc2/C=C/c2ccc(C)cc2)CC1)c1cccc(C)c1	-4%	3%
CCn1cc(C(=O)O)c(=O)c2cc(S(=O)(=O)N3CCCCCC3)ccc21	i	-15%

2 of these compounds, reformatted:
> O=C(Oc1ccc(=O)n(-c2ccccc2)n1)c1ccccc1
  Vaccinia mCherry: x; VACV Venus inh: u
> Cc1ccc(NC(=O)C2C3/C=C\CCCCC32)cc1 (centres undefined)
  Vaccinia mCherry: -21%; VACV Venus inh: -5%

(continued)
SMILES	Vaccinia mCherry	VACV Venus inh
CCOc1ccc(N2CC(C(=O)NC3CCCCCC3)CC2=O)cc1 (centres undefined)	28%	-10%
CC1CCC2(CC1)SCC(=O)N2c1ccc(F)cc1 (centres undefined)	-3%[7.34 µM]	1%[7.34 µM]
COc1ccc(NC(=O)N2CCCC2C(=O)NCc2ccc(F)cc2)cc1 (centres undefined)	-17%	-13%
COc1cccc(NS(=O)(=O)c2ccc3c(c2)N(C(C)=O)CCO3)c1	-1%[7.34 µM]	-7%[7.34 µM]
Cc1c(Cl)cccc1NC(=S)Nn1cnnc1	0%	-17%
CCCCCc1ccc(-c2ccc(/C=C/C(=O)O)cc2)nc1	-2%	-17%
CC[C@@H]1CC2=C(C(=O)OC(C)(C)O2)[C@H](c2ccc(F)cc2)O1	6%	5%
Cc1cccc2c(=O)c(-c3ccc4c(c3)OCO4)c(NC(=O)c3ccco3)oc12	-24%	-12%
O=C(CSc1nc2ccc(Nc3nc(N4CCOCC4)nc(N4CCOCC4)n3)cc2s1)N1CCOCC1	i	-16%
Cc1cc(C)nc(NC(=NCCc2c[nH]c3ccccc23)NC(=O)Nc2ccccc2)n1	u	u
COC(=O)c1[nH]c2ccc(C)cc2c1NC(=O)CN1CCN(c2ccccc2)CC1	u	u
CC(C)OP(=O)(O)NC(=O)c1ccccc1	i	-5%

Seven entries already listed, sorted by count of non-hydrogen atoms, falling:
SMILES	Vaccinia mCherry	VACV Venus inh
O=C(CSc1nc2ccc(Nc3nc(N4CCOCC4)nc(N4CCOCC4)n3)cc2s1)N1CCOCC1	i	-16%
Cc1cc(C)nc(NC(=NCCc2c[nH]c3ccccc23)NC(=O)Nc2ccccc2)n1	u	u
Cc1cccc2c(=O)c(-c3ccc4c(c3)OCO4)c(NC(=O)c3ccco3)oc12	-24%	-12%
COc1ccc(NC(=O)N2CCCC2C(=O)NCc2ccc(F)cc2)cc1 (centres undefined)	-17%	-13%
CCOc1ccc(N2CC(C(=O)NC3CCCCCC3)CC2=O)cc1 (centres undefined)	28%	-10%
CC[C@@H]1CC2=C(C(=O)OC(C)(C)O2)[C@H](c2ccc(F)cc2)O1	6%	5%
CC(C)OP(=O)(O)NC(=O)c1ccccc1	i	-5%

Next part:
SMILES	Vaccinia mCherry	VACV Venus inh
COc1ccc(Cl)cc1N(CC(=O)Nc1ccccc1C(=O)NCc1ccco1)S(C)(=O)=O	-21%	-20%
COC(=O)CNC(c1ccccc1Cl)c1cc(Br)ccc1NS(=O)(=O)c1ccc(C)cc1 (centres undefined)	-9%	-19%
O=C(NCCO)c1cc(-c2cc(C(=O)NCCO)c3ccccc3n2)nc2ccccc12	-8%	-15%
COc1cccc(-c2nc(CS(=O)CC(=O)NCc3ccccc3Cl)c(C)o2)c1 (centres undefined)	-20%	2%
CCOc1ccc(NC(=O)N2CCN(Cc3cc(=O)n4nc(-c5ccc(OC)cc5)sc4n3)CC2)cc1	-9%	-6%
COc1ccccc1-c1csc(C(NC(C)=O)c2ccc(F)c(F)c2)n1 (centres undefined)	-1%	0%
